E coli growth – E. coli growth inhibition; OD600 absorbance (concentration not given with the values); actives 0.21% (n = 330,000); AID 1053175; Escherichia coli growth, OD600, 23 h; stronger effect = lower value;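 active = OD600 absorbance below the run mean of sample wells minus 3.6 SD, in any replicate, cut at about 0.56 in these data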;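 note: stock transfer was 300 nL into about 60 µL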
Beta2AR agonist – activates human beta-2 adrenergic receptor causing internalization | Am2.2-beta2AR cells, FAP receptor internalization, flow cytometry; reference of the scale not given here | response, % (no concentration beside the values) | actives 0.43% (n = 340,000) | P07550 | AID 504454;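 active = response above a set limit, near 3 SD of response in nonfluorescent compounds, cut at about 42% in these data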;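 note: stock transfer was 100 nL into about 11 µL; a reference agonist was the positive control; negative values mostly stem from fluorescent compounds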
Target sequence (P07550 whole entry, looked up): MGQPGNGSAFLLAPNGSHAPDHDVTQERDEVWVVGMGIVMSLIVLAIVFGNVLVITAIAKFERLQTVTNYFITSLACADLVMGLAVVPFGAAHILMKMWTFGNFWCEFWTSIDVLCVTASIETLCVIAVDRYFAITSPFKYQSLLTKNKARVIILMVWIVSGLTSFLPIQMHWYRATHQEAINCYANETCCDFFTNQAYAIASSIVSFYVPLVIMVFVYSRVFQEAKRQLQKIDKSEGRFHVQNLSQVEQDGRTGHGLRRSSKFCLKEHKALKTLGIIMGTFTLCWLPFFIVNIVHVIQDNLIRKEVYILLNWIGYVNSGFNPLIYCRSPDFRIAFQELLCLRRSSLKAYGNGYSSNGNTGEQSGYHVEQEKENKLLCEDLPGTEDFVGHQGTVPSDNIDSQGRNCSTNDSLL
HNF4A DNA FP – change in binding of human HNF4 alpha to DNA; activity change, % at 10 µM; HNF4a-FITC DNA binding, fluorescence polarization, 1 h; P41235; AID 1224865; actives 0.3% (n = 360,000); in the data active = activity change above about 30%, passing the limit was not always enough;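 note: controls were the assay level and a saturating level of protein; the project sought stronger binding though the title names inhibitors; some compounds called inactive have numbers as strong as hits; positive values seem to mean higher polarization but the record does not say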
Target sequence (P41235 whole entry, looked up): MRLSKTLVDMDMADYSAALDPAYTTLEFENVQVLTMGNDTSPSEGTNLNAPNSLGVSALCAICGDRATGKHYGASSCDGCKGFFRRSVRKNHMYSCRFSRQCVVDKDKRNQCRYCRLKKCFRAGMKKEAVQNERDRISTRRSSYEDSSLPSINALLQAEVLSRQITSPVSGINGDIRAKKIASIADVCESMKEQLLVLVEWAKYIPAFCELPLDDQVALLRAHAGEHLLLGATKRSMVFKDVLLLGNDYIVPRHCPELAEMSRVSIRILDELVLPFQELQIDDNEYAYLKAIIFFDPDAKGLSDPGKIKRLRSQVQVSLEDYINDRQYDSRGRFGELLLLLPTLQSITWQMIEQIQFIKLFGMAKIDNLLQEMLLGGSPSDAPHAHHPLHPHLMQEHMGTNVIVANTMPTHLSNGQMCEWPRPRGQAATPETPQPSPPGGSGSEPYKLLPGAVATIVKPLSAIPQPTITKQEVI
Vif A3G – HIV-1 Vif–A3G interaction blockers – biochemical, TR-FRET, GST-Vif 1-94, biotin-A3G peptide, dose response retest, primary screen (AID 1117319); TR-FRET GST-Vif / biotin-A3G peptide binding; higher % means a stronger effect; test concentration not given here; strong numbers were not always called active; inhibition, %, or IC50 in µM where a hit was titrated; actives 0.57% (n = 260,000);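 active = above the screen mean plus three standard deviations and confirmed in dose response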;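 note: Vif residues 1-94 fused to GST binding biotinylated APOBEC3G peptide 110-148; 0% = full assay without inhibitor and 100% = GST in place of GST-Vif; retest series ran down from 100 µM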
* marks the source's active call; other numbers are inactive results; nt = not tested or not shown.

Preview, three compounds:
SMILES	E coli growth	Beta2AR agonist	HNF4A DNA FP	Vif A3G
O=C(OCC(O)C(O)C(O)COC(=O)c1ccccc1)c1ccccc1 (stereo not given)	nt	5.3	-1.5	nt
O=C(O)C1OC1(c1ccccc1Cl)c1ccccc1Cl (stereo not given)	nt	-10.8	0.4	nt
OC[C@H]1O[C@@H](n2cnc3c(NCc4ccco4)ncnc32)[C@H](O)[C@@H]1O	nt	0.1	2.7	nt

This part in full, repeating the preview:
SMILES	E coli growth	Beta2AR agonist	HNF4A DNA FP	Vif A3G
O=C(OCC(O)C(O)C(O)COC(=O)c1ccccc1)c1ccccc1 (stereo not given)	nt	5.3	-1.5	nt
O=C(O)C1OC1(c1ccccc1Cl)c1ccccc1Cl (stereo not given)	nt	-10.8	0.4	nt
OC[C@H]1O[C@@H](n2cnc3c(NCc4ccco4)ncnc32)[C@H](O)[C@@H]1O	nt	0.1	2.7	nt
COc1ccc(CC(=O)Nc2ccc(F)c(S(=O)(=O)N3CCOCC3)c2)cc1	nt	5.6	3.5	nt
CN1OC[C@@H]2CN(Cc3ccccc3)[C@H](c3cccc(Oc4ccccc4)c3)C[C@@H]21	nt	7.3	-0.7	nt
O=C(C1CCCCC1)N1CCC2CC1c1cc(Cl)ccc12 (stereo not given)	nt	6.4	-2.1	nt
O=C1C=C(C2OC(CO)C(O)C2O)C(=O)N1 (stereo not given)	nt	12.6	1.3	nt
Cc1c(N)cccc1Cl	nt	13.3	1.5	nt
O=c1[nH]c(=O)n(C(c2ccccc2)(c2ccccc2)c2ccccc2)cc1N(CCO)CCO	nt	-7.5	0.5	nt
CN(N=O)c1ccc(C=C2C=Cc3ccccc32)cc1	nt	3.9	2.7	nt
Cc1c(NC(=O)CCc2ccc(S(=O)(=O)N3CCOCC3)cc2)c(=O)n(-c2ccccc2)n1C	nt	3.2	-2.6	nt
CCN(c1ccccc1)S(=O)(=O)c1ccc(C(=O)NCc2ccco2)cc1	nt	-2.0	0.1	nt
CCOC(=O)C1=C(C)c2ccccc2OC1(C)C(=O)OCC (stereo not given)	nt	0.7	0.7	nt
COc1ccccc1-c1cccc([C@@H]2C[C@H]3[C@H](CON3C)CN2Cc2ccccc2)c1	nt	13.9	1.3	nt
CC1(C)NC(=O)N(CC(=O)OCC(=O)Nc2c(Br)cc([N+](=O)[O-])cc2Br)C1=O	nt	-6.4	-2.6	nt
C#CCOCCOCCOCCNc1nc(N2CCN(C(=O)Cn3cc(CCO)nn3)CC2)nc(N2CCN(C(=O)[C@H](CCCCN)n3cc(CCCC)nn3)CC2)n1	nt	0.2	10.2	nt
O=C(O)c1cc2ccccc2[nH]1	nt	-1.8	-0.6	nt
CCCOC(=O)c1ccc(NC(=O)COC(=O)C2CCN(c3ccc(C(F)(F)F)cn3)CC2)cc1	nt	0.3	3.0	nt
C#CCOCCOCCOCCNc1nc(N2CCOCC2)nc(N2CCN(C(=O)[C@H](CCCCN)n3cc(CCCC)nn3)CC2)n1	nt	-5.2	-0.1	nt
CCC1CCCCN1S(=O)(=O)c1ccc(NC(=O)C2CC(=O)N(C(C)(C)C)C2)cc1 (stereo not given)	nt	-11.3	-1.5	nt
NC(=O)c1ncn([C@@H]2O[C@H](CNCc3cccc4c3sc3ccccc34)[C@@H](O)[C@H]2O)n1	nt	3.3	0.9	nt
CCc1ccc(S(=O)(=O)N/N=C\c2cn(CC(N)=O)c3ccccc23)cc1	nt	0.4	0.1	nt
O=[N+]([O-])c1cccc(COc2ccccc2CN2CCCC2)c1	nt	8.8	-2.1	nt
CC(C)C[C@@H](CN1CCC[C@@H]1CN1C(=O)C(=O)NC[C@@H]1Cc1ccccc1)N1C[C@H](Cc2ccc(O)cc2)N(CC2CCCCCC2)C(=O)C1=O	nt	12.8	3.9	nt
O=C(C(=Cc1ccccc1)CN1CCCCC1)c1ccccc1	nt	49.2*	9.3	nt
(more compounds)
SMILES	E coli growth	Beta2AR agonist	HNF4A DNA FP	Vif A3G
Cc1ccc(NC(=O)c2ccc(Br)o2)c([N+](=O)[O-])c1	nt	7.8	1.1	nt
CC(C)C(OC(=O)C1=Cc2ccccc2OC1)C(=O)NCC1CCCO1 (stereo not given)	nt	6.6	2.6	nt
O=C1CC(N2CCN(S(=O)(=O)c3ccccc3F)CC2)C(=O)N1c1ccccc1F (stereo not given)	nt	5.3	1.0	nt
N#CC1(Nc2ccc(-c3ccc(NC4(C#N)CCCC4)cc3)cc2)CCCC1	nt	-0.5	2.1	nt
COc1ccccc1N(C)S(=O)(=O)c1ccc(C(=O)NCC(c2ccco2)N2CCCCC2)cc1 (stereo not given)	nt	-1.0	-2.1	nt
CCc1ccc(Cn2ncc3c(C(=O)O)cc(C)nc32)cc1	nt	9.3	-3.3	nt
CN(C)c1ccc2c(c1[N+](=O)[O-])Cc1ccccc1-2	nt	-14.5	3.8	nt
c1ccc(CNCCCn2cnc3c(OCc4ccccc4)ncnc32)cc1	nt	15.9	-0.8	nt
Cc1ccc2nc(SCC(=O)N3CCCc4ccccc43)nc(=O)n2c1	nt	-4.2	-0.9	nt
COc1cc2ccc(=O)oc2c(O)c1O	nt	1.3	-1.6	nt
Cc1ccc2oc3ccccc3c(=O)c2c1	nt	-4.1	0.3	nt
CC1=C(O)C(=O)C(C2=C(O)C(=O)C(C)=C(O)C2=O)=C(O)C1=O	nt	1.6	-59.6	nt
CC(=O)Nc1ccc(NC(=O)CSc2nnc(N)n2-c2ccccc2)cc1	nt	4.2	-3.2	nt
Cc1nnc(SC(C)C(=O)NC2CCCCC2)[nH]c1=O (stereo not given)	nt	5.4	2.6	nt
COc1ccc(C(C#N)=C2C=CC(=NO)C(C)=C2Cl)cc1	nt	-1.9	0.5	nt
CCOC(=O)c1[nH]c2c(OCC)nc(OCC)nc2c1Br	nt	-11.8	-3.7	nt
CCCCN1CC(COCc2ccccc2)Oc2cccc(F)c2S1(=O)=O (stereo not given)	nt	-0.2	1.4	nt
NC(=O)c1ncn([C@@H]2O[C@H](CNCc3cccc(OC4CCCC4)c3)[C@@H](O)[C@H]2O)n1	nt	-5.3	3.9	nt
C#CCOCCOCCOCCNc1nc(N2CCN(C(=O)[C@H](C(C)C)n3cc(CCO)nn3)CC2)nc(N2CCN(C(=O)[C@H]([C@@H](C)CC)n3cc(CCC(=O)O)nn3)CC2)n1	nt	-0.3	4.0	nt
COc1cc(C2c3cc4c(cc3OC(Nc3ccc(C(=O)O)cc3)C2C)OCO4)cc(OC)c1OC (stereo not given)	nt	6.4	9.7	nt
Cc1ccc(S(=O)(=O)c2ccc([N+](=O)[O-])o2)cc1	nt	86.2*	3.1	nt
O=C(NCCc1ccccc1)c1ccc(NC(=O)C2CC2)cc1	nt	1.3	-3.3	nt
Cc1ccc(NC(=O)CCN2CCN(CCO)CC2)cc1	nt	-0.3	2.1	nt
Cc1ccc2c(Cl)c(C)c(N3CCOCC3)nc2n1	nt	-2.0	-1.4	nt
C=CC(=O)Nc1ccc(Nc2ccnc(Nc3ccc(N4CCN(C)CC4)cc3)n2)cc1	nt	16.0	47.6	nt
(listing goes on)
SMILES	E coli growth	Beta2AR agonist	HNF4A DNA FP	Vif A3G
O=C(NCCCc1ccccc1)c1cccc(NC(=O)C2CC2)c1	nt	-9.6	3.2	nt
N#CC1(C(N)=O)OC12CCS(=O)(=O)c1ccccc12 (stereo not given)	nt	-3.4	2.1	nt
Cc1cc(C(=O)N/N=C/c2ccc(O)c(O)c2O)c(C)n1-c1ccccc1	nt	1.9	-1.6	nt
O=C(OCc1ccccc1)N1CCC2CC1c1cc(N3CCCCC3)ccc12 (stereo not given)	nt	10.2	-1.2	nt
C[C@H]1NC(=O)[C@]2(C)[C@@H](c3ccccc3)[C@H]3COc4ccccc4[C@@H]3N2C1=O	nt	-1.0	14.2	nt
COc1ccc(CCNC(=O)CN2c3cccc4cccc(c34)S2(=O)=O)cc1	nt	-8.3	-5.7	nt
CCOC(=O)N1CCC2CC1c1cc(-c3cccc(OC)c3)ccc12 (stereo not given)	nt	0.1	-4.6	nt
C[C@H](O)[C@@H]1C(=O)N2CCc3ccc(-c4ccccc4)cc3[C@@H]2C[C@@H]1N(C)C(=O)c1ccc(C#N)cc1	nt	-14.2	-2.2	nt
COCC(=O)N1CCC2CC1c1cc(Cl)ccc12 (stereo not given)	nt	2.6	3.1	nt
COC(=O)C1C=CC(OC2OC(COC(C)=O)C(OC(C)=O)C(OC(C)=O)C2OC(C)=O)n2c(=O)n(-c3ccccc3)c(=O)n21 (stereo not given)	nt	8.6	-0.6	nt
Cc1nnc(NC(=O)CSc2nnc(CNC(=O)c3ccccc3F)n2C(C)C)s1	nt	0.9	-1.9	nt
O=C1C=CC2=C3c4cc(O)c(O)cc4CC3(O)COC2=C1O (stereo not given)	nt	-6.7	-58.0	nt
Cc1c(F)cccc1NS(=O)(=O)c1ccc(N2CCCC2=O)cc1	nt	15.7	-0.7	nt
COc1cc(C=c2c3ccccc3n3c2cc(-c2ccccc2)[n+]3C)cc(OC)c1OC	nt	-9.3	16.5	nt
N#CC1=C(N)Oc2cc(N)ccc2C1c1ccccc1 (stereo not given)	nt	6.9	0.5	nt
O=[N+]([O-])c1ccc(N/N=C/c2sc(N3CCOCC3)nc2-c2ccccc2)c(S(=O)(=O)Nc2ccc(Cl)cc2)c1	nt	-639.3	59.0*	nt
CCCCCCCCNCCS(=O)(=O)NCc1ccc(OC)cc1	nt	11.1	7.0	nt
O=C1C2CCCN2C(=O)N1CCN1CCN(c2cccc(C(F)(F)F)c2)CC1 (stereo not given)	nt	7.3	-3.1	nt
CCCCCCCCNS(=O)(=O)CCNCc1ccccc1OC	nt	6.0	0.4	nt
N#Cc1ccc(C(=O)N2CCC3CC2c2cc(-c4ccccc4)ccc23)cc1 (stereo not given)	nt	-6.2	-2.9	nt
CCC(CN(C)C)Oc1cc(NCc2ccccc2)c2ncn(C(C)C)c2c1 (stereo not given)	nt	-32.2	-5.0	nt
Cc1ccc(S(=O)(=O)N2CCN(C(=O)COC(=O)CNC(=O)c3ccc(Cl)cc3Cl)CC2)c(C)c1	nt	17.6	0.7	nt
O=C1CN(Cc2ccccc2)CC(=O)N1	nt	-4.0	1.5	nt
CN(C)c1ccc(C=c2c3ccccc3n3c2cc(-c2ccc(Cl)cc2)[n+]3C)cc1	nt	-274.6	50.4*	nt
O=C(Nc1cccc(C(=O)N2CCOCC2)c1)C1CC1	nt	4.5	1.4	nt
Next section:
SMILES	E coli growth	Beta2AR agonist	HNF4A DNA FP	Vif A3G
CN(c1ccccc1)S(=O)(=O)c1ccc(NC(=O)CC(=O)c2ccccc2)cc1	nt	-2.0	-0.4	nt
Cn1c(=O)c2[nH]c(C3CC4CCC3C4)nc2n(C)c1=O (stereo not given)	nt	-11.5	2.4	nt
COc1ccc(C=O)c(OCc2cn(CC(=O)c3ccc(O)cc3)nn2)c1	nt	-3.2	1.9	nt
CCCCCCCCNCCS(=O)(=O)NC1CCCCC1	nt	-2.4	-0.4	nt
O=C(CCN1CCCCC1)c1cccc(Cl)c1	nt	-8.2	-3.6	nt
CCc1ccc(C(=O)NCC2(c3ccccc3)CCOCC2)o1	nt	0.5	-4.4	nt
O=[N+]([O-])c1cccc(COc2ccc(CN3CCCC3)cc2)c1	nt	-3.6	6.3	nt
COc1cccc(OCc2cc(C(=O)N(C)CCOc3ccc(C)cc3)no2)c1	nt	1.2	-4.9	nt
CCc1nc(SCC(=O)Nc2ccc(N(CC)CC)cc2)n[nH]1	nt	-3.3	-0.5	nt
CCOc1ccc(OCC(=O)Nc2cccc(S(=O)(=O)NC3=NCCC3)c2)cc1	nt	-10.1	-0.6	nt
Cc1ccc(S(=O)(=O)/N=C2\C=C(NS(=O)(=O)c3ccccc3)C(=O)c3ccccc32)c(C)c1	nt	5.0	-2.4	nt
COC1=C(Br)C(=O)c2ncccc2C1=O	nt	-15.6	3.0	nt
Cc1ccccc1S(=O)(=O)N1C(c2ccc(Cl)cc2)CC=C(C(=O)O)C1c1cccc(Cl)c1 (stereo not given)	0.615	nt	-5.1	nt
CCN1C(=O)[C@H]2[C@@H](c3ccc(C)cc3)N[C@]3(CCCN(Cc4ccc(C(F)(F)F)cc4)C3=O)[C@H]2C1=O	nt	nt	0.1	11.1%
Cc1ccn(CC(=O)NC2CCCN(Cc3ccccc3F)C2)n1 (stereo not given)	nt	nt	-0.8	2.0%
C[C@@H]1CN([C@@H](C)CO)C(=O)CCCn2nncc2CO[C@H]1CN(C)Cc1cccc(O)c1	nt	nt	-5.0	9.3%
O=Cc1cn(-c2ccccc2)nc1-c1cccc([N+](=O)[O-])c1	nt	nt	0.3	-3.3%
CN1CCn2cnc(C(=O)NCc3ccccc3)c2C1=O	nt	nt	1.1	4.9%
COc1ccccc1C(=O)N/C(=C/c1ccc(Br)cc1)C(=O)N1CCOCC1	nt	nt	-1.0	18.2%
CCc1ccc(-n2c(=S)sc3c(=O)[nH]c(SCC(=O)NC4CCCCC4)nc32)cc1	nt	nt	-2.2	10.4%
COc1ccc(CCN2CC(C(=O)NCCc3ncccc3C)CCC2=O)cc1 (stereo not given)	nt	nt	0.8	0.3%
O=C(Cn1sc2ccccc2c1=O)Nc1ccc(Br)cc1	nt	nt	-0.5	17.4%

Screens (PubChem BioAssay)

Only part of the results is shown; count on the stated rates, not on these rows.
